PABP FP inh: blocks human PABP binding to poly(A) RNA | P11940 | fluorescence polarization | inhibition, % at 35 µM | hit rate 1% among 290,000 | AID 2014;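 active = 50% or more with normal probe brightness, or confirmed in later tests; inconclusive = above 50% with abnormal brightness, or retests that disagree; inactive = below 50% or failed in later tests; about a fifth of its hits are not listed in these tables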;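 note: calls also rest on retests at 20 µM and on dose response follow-up; controls were probe without protein and protein plus probe with vehicle; some compounds called inactive have numbers as strong as hits; many hits fall short of the cut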
Rce1 inh: yeast Ras-converting enzyme inhibition; Q03530; yeast membranes, quenched prenylated peptide cleavage fluorescence; calls only; hit rate 0.27% among 290,000; AID 2563;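 active = fall in fluorescence gain of 50% or more versus controls, with final raw signal at or below 3038400; inconclusive = same 50% fall but final raw signal above 3038400; inactive = fall in fluorescence gain under 50%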;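 note: plate controls were neutral control wells for no effect and wells lacking membranes for full effect; tested at 10 µM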
Target sequence (Q03530 whole entry, looked up): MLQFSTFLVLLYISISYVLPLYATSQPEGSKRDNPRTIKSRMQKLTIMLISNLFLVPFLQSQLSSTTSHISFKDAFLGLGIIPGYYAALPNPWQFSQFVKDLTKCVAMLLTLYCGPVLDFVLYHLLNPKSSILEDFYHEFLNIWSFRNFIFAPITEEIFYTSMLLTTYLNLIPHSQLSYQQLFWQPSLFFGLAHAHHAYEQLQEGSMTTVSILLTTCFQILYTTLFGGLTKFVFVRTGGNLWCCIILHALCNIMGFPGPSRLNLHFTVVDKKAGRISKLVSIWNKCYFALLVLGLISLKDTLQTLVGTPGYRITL
eIF4H FP inh: inhibitors of RNA binding by human eIF4H; Q15056; eIF4H fluorescence polarization binding assay; inhibition, % at 35 µM; hit rate 0.94% among 290,000;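 active = 50% or more with normal probe brightness, or confirmed in later tests; inconclusive = above 50% with abnormal brightness, or retests that disagree; inactive = below 50% or failed in later tests; about a fifth of its hits are not listed in these tables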;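 note: calls also rest on retests at 20 µM and on dose response follow-up; 0% = protein and probe with vehicle and 100% = probe without protein; strong numbers were not always called active; many hits fall short of the cut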
CSC inhib: blocks cancer stem cells | cancer stem cell-like cells viability, luminescence | inhibition, % at 7.5 µM | hit rate 1.1% among 300,000;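 active = mean at 75% or more and at least half the replicates too; inconclusive = mean and replicates disagree; tested in HMLE shEcad cells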;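 note: 0% = median of negative and 100% = median of positive control wells; the first replicate is given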
UUG fidelity: yeast start codon fidelity modulation. hit rate 0.13% among 350,000. activity score, % at 18.7 µM. AID 602363. S. cerevisiae UUG-firefly luciferase reporter, luminescence/redox ratio;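 active = replicate mean at a twofold rise or more, about +100% in these data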;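 note: firefly luciferase made from a UUG start codon reports start codon fidelity; reporter light over untreated wells divided by growth signal over untreated wells; some hits fall short of that in this replicate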
HIV Env fusion: HIV envelope-mediated fusion inhibition | inhibition, % at 12.3 µM | hit rate 1.1% among 360,000 | HeLa-JRFL Env/CEM21 cell fusion, luciferase;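 active = mean replicate inhibition score of at least 50 and every replicate individually at or above 50; inconclusive = only one of the two criteria met; inactive = mean below 50 and not all replicates reaching 50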;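 note: 0% = plate neutral controls and 100% = maraviroc near 300 nM; one replicate is shown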
MT1-MMP act inh: inhibitors of human MT1-MMP activation; P50281; HT1080 RFP-PRO-GFP cells, GFP/RFP ratio fluorescence, overnight; percent of plate control window, DMSO zero; GFP/RFP ratio change, % at 20 µM; hit rate 0.061% among 360,000; AID 651647;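 active = GFP/RFP ratio change of at least 30% with cell ATP level not reduced by more than half and red fluorescence within 50% of control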; note: strong numbers were not always called active
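Material – HT1080 RFP-PRO-GFP cells · Control set – DMSO wells and RFP-L50D-GFP cells · Incubation – overnight cell settling, then overnight compound exposure, 37 °C, 5% CO2 · Compound dosing – single-point 20 µM compound, 1% DMSO · Read-out – GFP/RFP fluorescence ratio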
eIF4H FP inh retest: second read-out of eIF4H FP inh, no call of its own (marks repeat the call); inhibition, %; compound at 20 µM; confirmation average;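 mean of two retest wells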
PABP FP inh retest: also measured in PABP FP inh; calls as there; inhibition, %; compound at 20 µM; confirmation repeats;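 mean of two retest wells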
MT1-MMP act inh RFP: recorded beside MT1-MMP act inh, whose call it bears; RFP signal change, %; measured here: RFP expression control read;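 0 = vehicle wells; hits needed this value within 50% of zero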
Active calls of the source: *; i = inactive; ? = inconclusive; . = no result given. This is a subset, so the mix of outcomes need not match the whole.

SMILES	PABP FP inh	Rce1 inh	eIF4H FP inh	CSC inhib	UUG fidelity	HIV Env fusion	MT1-MMP act inh	MT1-MMP act inh RFP	others
COc1ccc(C(=O)O)cc1S(=O)(=O)Nc1cc(C(F)(F)F)ccc1N1CCCCC1	.	.	.	.	-9	-7	4	7
CCCCn1c(N)c(C(=S)NC(=O)CC(C)(C)C)c(=O)n(C)c1=O	7	i	-1	.	-19	-1	5	-6
N#CCSc1nnc(-c2ccccc2O)n1Cc1ccccc1	-1	i	1	-16	-13	-4	-3	-2
CC(C)Nc1nc(NCCN2CCNC2=O)c2sccc2n1	.	.	.	.	-14	-9	0	6
COc1ccc(CC(=O)Nc2cc(NC(=O)Cc3ccc(OC)c(OC)c3)cc(C(=O)O)c2)cc1OC	0	i	6	4	6	13	-1	2
O=C(NNC(=S)Nc1ccc(Cl)cc1Cl)c1ccc(N2CCOCC2)c([N+](=O)[O-])c1	-2	i	2	11	.	2	3	0
Cc1ccc(NC(=O)COC(=O)CCNS(=O)(=O)c2ccc(C)c(C)c2)cc1	7	i	4	-11	.	0	1	2
Cc1cccc(OCCCC(=O)Nc2ccc(N3CCCCC3)cc2)c1	-1	i	0	-5	3	.	3	0
CCC(C)(C)NC(=O)C(c1ccc(F)cc1)N(Cc1ccccc1)C(=O)c1cnccn1 (configuration not stated)	-5	i	-11	-9	.	37	-3	0
CCCN1CNc2c(c(=O)[nH]c(=S)n2-c2ccccc2Cl)C1	6	i	-8	-8	.	6	6	8
COc1c2c(c(OC)c3ccccc13)[C@@]1(OC2)O[C@H](CCO)C[C@H](O)[C@H]1O	.	.	.	.	-1	18	3	7
CCOc1ccc(S(=O)(=O)NCCC(=O)NCC(c2ccccc2OC)N2CCCC2)cc1 (configuration not stated)	3	i	-2	18	-6	.	3	4
COc1ccccc1CNC(=O)c1cc(-c2ccc(F)cc2OC)n[nH]1	.	.	.	.	-15	3	-4	-2
CCC(=O)N(CC(=O)Nc1sc(C)c(C)c1C(N)=O)C1CCCC1	42	i	1	-11	.	25	-1	2
O=C1N[C@H](Cc2ccccc2)COC(=O)[C@H](Cc2ccc(F)cc2)C/C=C\C[C@H]1CC(=O)N(CCO)Cc1ccccc1	.	.	.	.	-9	-40	-7	-12
N/C(=N\OC(=O)Cc1ccccc1)c1cccnc1	-13	i	-15	19	.	-56	0	1
CS(=O)(=O)N1CCN(C(=S)NCc2ccc(Cl)cc2)CC1	4.3*	i	82*	-16	-14	10	2	3	eIF4H FP inh retest=90*;PABP FP inh retest=67*
Cc1cccn2cc(-c3cccc(NC(=O)c4cccs4)c3)nc12	-3	i	-6	3	.	-25	3	1
Cn1c(SCc2ccc(Br)cc2)nnc1-c1cccs1	-1	i	-7	1	-18	-19	-3	0
N#Cc1c(NC(=O)c2cc(-n3cnnc3)ccc2Cl)sc2c1CCCC2	-1	i	-4	5	-17	.	0	-21
COc1ccccc1N1CCN(CCCCN2C(=O)c3ccccc3C2=O)CC1	.	i	.	-5	5	22	0	1
O=C(NCc1ccco1)c1cccc2ccccc12	-1	i	-7	-9	-15	.	4	1
CCCCC(=O)Nc1sc2c(c1C(N)=O)CCC2	-13	i	-3	10	-9	-10	3	0
CCNC(=O)CSc1nc2cc(S(=O)(=O)Nc3ccc(OC)cc3)ccc2o1	0	i	-4	0	-7	-3	9	-4
CC(CC(=O)N1CCc2ccccc21)n1cccn1 (configuration not stated)	-6	i	-2	-12	-7	-13	1	6

Overlap with the part before: 2 entries; new compounds follow.
SMILES	PABP FP inh	Rce1 inh	eIF4H FP inh	CSC inhib	UUG fidelity	HIV Env fusion	MT1-MMP act inh	MT1-MMP act inh RFP	others
CCNC(=O)CSc1nc2cc(S(=O)(=O)Nc3ccc(OC)cc3)ccc2o1	0	i	-4	0	-7	-3	9	-4
CC(CC(=O)N1CCc2ccccc21)n1cccn1 (configuration not stated)	-6	i	-2	-12	-7	-13	1	6
O=S(=O)(NCCCCCCNS(=O)(=O)c1c(F)cccc1F)c1ccc2c(c1)OCCO2	.	.	.	6	3	8	-2	-4
CCc1ccc(C(=O)OCC(=O)N(CCOC)c2c(N)n(Cc3ccccc3)c(=O)[nH]c2=O)cc1	.	i	.	1	-10	-6	1	-3
CN(C)c1ccc(/C=C/C(=O)c2ccc(O)cc2)cc1[N+](=O)[O-]	14	i	-7	26	.	-14	4	-13
COc1ccc(NC(=O)C2Cc3c(-c4cccc(NC(C)=O)c4)ccnc3O2)cn1 (configuration not stated)	.	.	.	.	-14	-18	1	-10
COC(=O)N/N=C\c1ccc(OC/C=C/c2ccccc2)c(OC)c1	8	i	-5	14	0	-4	-2	2
CCc1cc(C(=O)N2CCCC(Nc3ccc(F)c(F)c3)C2)n(C)n1 (configuration not stated)	-8	i	-2	1	-3	-3	1	2
O=C(/C=C/c1ccc([N+](=O)[O-])cc1)NCCSCc1ccco1	0	i	-2	-11	.	-3	5	4
Cc1cccc(NC(=S)NCc2ccc3c(c2)cc(C)n3C)c1C	7	i	11	27	-10	.	41*	47*
Cc1cc(C(=O)NCc2ccc(S(N)(=O)=O)cc2)c(C)o1	-3	i	-3	-1	-1	-102	6	6
Cc1cc(NC(=S)Nc2ccccc2)ccc1Br	-3	i	-1	-4	.	.	6	2
CC(=O)Nc1ccc2c3c(cccc13)CC2	.	i	.	18	-21	1	2	-1
CCOC(=O)/C(C#N)=C1\C(=O)N(Cc2ccccc2)c2ccccc21	-1	i	4	-2	-3	-6	-3	2
COc1ccc(CCc2nnc(N)s2)cc1OC	-6	i	6	9	-17	1	-1	2
COc1ccc(-c2nc3nc(N)nn3cc2C)cc1F	0	i	7	1	-16	-22	1	-4
COc1cc(/C=C2/C(C)=C(C#N)c3nc(N)c(C#N)c(C)c32)ccc1OCC(=O)O	38	i	19	-6	.	6	.	.
O=C(Nc1ccccc1[N+](=O)[O-])OCC=Cc1ccccc1	.	.	.	.	14	12	3	2
COc1ccc(C(O)c2nc(-c3cccc(CO)c3)cs2)cc1 (configuration not stated)	.	.	.	.	-14	4	6	2
Cc1nc(SCC(=O)c2ccc(F)c(F)c2)[nH]c(=O)c1Oc1ccc(Cl)cc1	-2	i	-9	16	.	-31	1	-1
O=C(COC(=O)C1CCCCC1)Nc1cccc(Br)c1	.	.	.	-10	-8	.	-1	1
O=C(Nc1ccc(OCc2ccccc2)cc1)c1ccccc1	6	i	13	10	.	21	6	8
CCC(=O)NC(c1cccs1)c1ccc2cccnc2c1O (configuration not stated)	-3	i	9	106*	.	-5	2	-4
O=C(CCN1C(=O)/C(=C/c2ccc(Cl)cc2)SC1=S)NCCCn1ccnc1	-3	i	16	37	-3	11	0	-1
Cc1cc(C)cc(N(CC(=O)N2CCCCCC2)S(C)(=O)=O)c1	-8	i	-6	-4	-8	3	-2	-4
Cc1ccc(C2C3C(=O)N(c4ccccc4)C(=O)C3N3CCCN23)cc1 (configuration not stated)	4	i	-4	-15	.	10	-2	3
Cc1cccc2c(=O)c(Br)c(C)n(Cc3ccccc3)c12	0	i	2	0	.	12	-2	-4
(listing goes on)
SMILES	PABP FP inh	Rce1 inh	eIF4H FP inh	CSC inhib	UUG fidelity	HIV Env fusion	MT1-MMP act inh	MT1-MMP act inh RFP	others
CCC1=NN(C(=O)Cc2ccc([N+](=O)[O-])cc2)C(O)(c2ccncc2)C1 (configuration not stated)	-5	i	-2	6	.	-8	-1	2
COc1cccc(-c2cc(CC3(O)CCN(CCCc4ccccc4)CC3)on2)c1	-5	i	5	15	-11	.	-1	2
Cn1nc(C(=O)OCC(=O)Nc2cc(Cl)ccc2C#N)c2ccccc2c1=O	.	.	.	.	2	4	-3	3
CC1=C(C(=O)OC(C)C)C(c2ccc(C)o2)C(C(=O)OC(C)C)=C(C)N1	-3	i	-2	20	.	39	-2	-6
Cc1ccc(CNC(=O)c2c(-c3ccccc3)noc2C)cc1	-1	i	-5	-13	.	-8	-1	1
CC(C)CCN1C(=O)CCC1(C)C(=O)NC1CCCCCC1 (configuration not stated)	-7	i	-4	-21	-3	.	13	3
COc1ccc(S(=O)(=O)N(Cc2cccs2)C2CCCC2)cc1	5	i	3	6	-5	.	-5	-5
CCC(=O)OCC(=O)C1(OC(=O)CC)[C@H](C)C[C@H]2[C@H]3[C@H]([C@@H](O)C[C@@]21C)[C@@]1(C)C=CC(=O)C=C1C[C@H]3Cl (some centres not stated)	.	.	.	6	2	i	-6	-4
OC(CSc1ccccc1)CN1CCN(c2ccccc2)CC1 (configuration not stated)	.	.	.	.	-17	-17	-4	-2
COc1ccccc1C(=O)N/C(=C\c1cn(S(=O)(=O)N(C)C)c2ccccc12)C(=O)NCCCN1CCOCC1	4	i	2	5	4	-4	1	2
CCOC(=O)C1CCN(C(=O)c2cccc(C(=O)N3CCC(C(=O)OCC)CC3)c2)CC1	1	i	-3	0	5	.	17	3
O=C(O)c1ccccc1CC(CCc1ccccc1)C(=O)O (configuration not stated)	.	.	.	.	51	-10	2	1
O=C(N/N=C/c1cccnc1)C(O)(c1ccccc1)c1ccccc1	-7	i	-10	5	-14	-40	-4	4
CC(NC(=O)c1ccccc1NS(C)(=O)=O)c1ccccc1 (configuration not stated)	-1	i	-6	-3	-4	.	1	3
CCCN1CCC(N2CCN(c3cccc(C(F)(F)F)c3)CC2)CC1	3	i	-9	.	5	14	10	1
CCOC(=O)C(C(=O)c1ccccc1)C1CC(C)NC(=S)N1 (configuration not stated)	-9	i	-7	0	.	11	4	6
O=C(O)c1ccc(-c2nnn(Cc3cccc(C(F)(F)F)c3)n2)cc1	-19	i	-2	-5	4	-6	5	7
CS(=O)(=O)Nc1ccc2[nH]c(=O)[nH]c2c1	-2	i	-12	-12	.	.	-2	2
CCOCCCNC(=O)Cn1cnc2c(cnn2-c2ccc(F)cc2)c1=O	-1	i	4	-8	7	-6	-1	-2
O=S1(=O)CCC(NC2CCCC2)C1 (configuration not stated)	4	i	-2	-9	5	4	-2	3
N#Cc1ccc(N2CCc3ccccc3C2)c([N+](=O)[O-])c1	-2	i	-16	-7	-10	15	-3	-1
S=c1[nH]ncn1/N=C/c1ccccc1	-4	i	-6	-10	-26	.	4	5
CC1=CC(C)(C)Nc2ccc(OC(=O)c3ccco3)cc21	11	i	11	39	-9	-6	-175	11
Cc1ccc(CCSCC(=O)O)cn1	15	i	-11	-5	-11	19	0	0
O=S(=O)(c1ccccc1)N1N=C(c2ccc(O)cc2)CC1c1ccco1 (configuration not stated)	1	i	-2	0	-14	9	-6	-11
Remaining list, next part
SMILES	PABP FP inh	Rce1 inh	eIF4H FP inh	CSC inhib	UUG fidelity	HIV Env fusion	MT1-MMP act inh	MT1-MMP act inh RFP	others
Cc1cccc(NS(=O)(=O)c2ccc(C(=O)NCC(c3ccco3)N(C)C)cc2)c1C (configuration not stated)	-17	i	13	.	-14	-17	.	.
CC(=O)c1sc2nsc(SCCN3CCCCC3)c2c1N	18	i	11	0	-17	3	-7	-4
COC(=O)c1ccccc1NC(=O)CCNC(=O)Cn1cnc2ccccc2c1=O	1	i	-3	-5	-11	-16	-2	-1
CC(=O)N1c2ccc(S(=O)(=O)NCCC(=O)Nc3ccc(OC(F)(F)F)cc3)cc2CC1C (configuration not stated)	5	i	11	-14	-10	0	3	-7
COc1cc(/C=C(\C#N)c2nc3ccccc3[nH]2)cc(OC)c1O	?	.	?	4	.	-82	-73	19
CCc1nc2ccc(C(=O)NCc3cccs3)cn2c1N(CC)CCN(C)C	.	.	.	.	-20	-8	-5	0
O=C(C[C@H]1C/C=C\CC[C@@H](Cc2ccc(F)cc2)C(=O)O[C@@H](c2ccccc2)CNC1=O)N[C@@H](CO)Cc1ccccc1	.	.	.	-5	1	33	10	-1
